MgrA-DNA mod = S. aureus MgrA-DNA binding modulation. fluorescence polarization. inhibition, %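 (about 10 µg/mL by stock and volumes)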. 84,000 tested, 0.13% active. AID 602314;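 active means above 50% in either of two replicates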;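 further: 0% = protein plus DNA without compound and 100% = DNA alone without protein; higher means less MgrA bound to DNA so lower polarization; one replicate is shown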
Sa helicase inh = blocks Staphylococcus aureus DNA helicase; purified S. aureus helicase, fluorescence unwinding assay; about half of the hits fall short of the stated cut; inhibition, %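 (tested at about 80 µM)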; 120,000 tested, 0.05% active; AID 485395;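 active means both duplicates at 50% or more, or one of them with a favoured structure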;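 further: 0% = mean of negative control wells and 100% = mean of positive control wells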
* marks the source's active call; other numbers are inactive results; nt = not tested or not shown. An excerpt, so the mix of outcomes need not match the whole.

Value order: MgrA-DNA mod	Sa helicase inh
> Cc1ccc(NC(=O)c2ccco2)c(C(=O)c2ccccc2)c1
  nt	-6
> CC(C)(C)c1cc(C(=O)O)nn1-c1ccccc1
  -0.6	nt
> CCOc1ccc(Br)cc1S(=O)(=O)N(C)c1cccc(OC)n1
  nt	6
> O=C(O)c1cccc(NS(=O)(=O)c2cccc3cccnc23)c1
  nt	11
> C/C=C/C(=O)N1CCCC(c2nc(-c3cccc(OC)c3)no2)C1 (stereo not drawn)
  -1.3	15
> COCCN1C(=O)c2ccccc2C(C(=O)Nc2ccc(C(=O)OC)cc2)C1c1cccs1 (stereo not drawn)
  3.5	-3
> Cc1ccc(C(=O)Cn2cccn2)cc1
  -1.1	nt
> CC1CCCN(S(=O)(=O)c2ccc(C(=O)Nc3ccccc3-c3nc4ccccc4[nH]3)cc2)C1 (stereo not drawn)
  1.6	2
> N#Cc1ccc(NC(=O)COC(=O)c2cccc(F)c2)cc1
  nt	10
> O=C(Cc1ccccc1)NCCc1nc2ccccc2[nH]1
  nt	5
> Cn1c(C(=O)N2CCCC2)cc2sccc21
  nt	7
> Cc1nnc(NCC(C)O)[nH]c1=O (stereo not drawn)
  -4.4	-8
> CN(C)c1ccc(/C=C2\SC(=Nc3ccccc3)N(CCO)C2=O)cc1
  nt	-17
> O=C(CCC1CCCC1)N1CCCC(c2nc(-c3ccc(F)cc3)no2)C1 (stereo not drawn)
  0.1	18
> CN1/C(=C2/SC(=S)N(c3ccccc3)C2=O)Sc2ccccc21
  3.0	-7

Structural class, the entries above with an aryl methoxy group
Value order: MgrA-DNA mod	Sa helicase inh
> CCOc1ccc(Br)cc1S(=O)(=O)N(C)c1cccc(OC)n1
  nt	6
> C/C=C/C(=O)N1CCCC(c2nc(-c3cccc(OC)c3)no2)C1 (stereo not drawn)
  -1.3	15

The list continues:
Value order: MgrA-DNA mod	Sa helicase inh
> C=CCN(CC=C)Cn1nc(Nc2ccccc2F)sc1=S
  nt	-11
> Cc1nc2cc(-c3ccccc3)nn2c(C)c1CCC(=O)N1CCc2ccccc21
  1.3	-10
> COc1cc(OC)cc(C(=O)Nc2cc(C(=O)NCc3ccco3)ccc2N2CC3CC(C2)c2cccc(=O)n2C3)c1 (stereo not drawn)
  nt	17
> Oc1c(C=NCc2ccccc2)[nH]c2ccc(Br)c(Cl)c12
  -2.7	-126
> Cc1nc2ccc(NC(=O)c3cccs3)cc2o1
  -0.8	nt
> O=C(CSc1ccccc1C(=O)N(Cc1ccncc1)Cc1cccnc1)N1CCCC1
  nt	-29
> NS(=O)(=O)c1ccc(NNC(=O)/C=C/c2cccs2)cc1
  nt	8
> COC(=O)C(C)Sc1nnc2c3ccccc3n(Cc3ccccc3)c2n1 (stereo not drawn)
  3.8	11
> CC(NC(=O)CN1CCCc2ccccc21)c1ccccc1 (stereo not drawn)
  nt	-6
> CCc1nc(SCC(=O)O)c(C#N)cc1C
  1.1	15
> CCOc1ccc(-n2c(C)c(C(=O)OC3CCCCC3)c3cc(OC)ccc32)cc1
  0.9	nt
> O=C(/C=C/c1cn(-c2ccccc2)nc1-c1cccnc1)N1CCCCC1
  -1.6	10
> CCCCn1c(=O)[nH]c(=O)c2c1nc(-c1ccc(-c3ccc(S(=O)(=O)N(CC)CC)cc3)o1)n2CC(C)C
  nt	1
> OC(OCc1ccc(C(O)(C(F)(F)F)C(F)(F)F)o1)(C(F)(F)F)C(F)(F)F
  3.8	8
> O/N=C/c1c(-c2ccc(Cl)cc2)[nH]c2ccccc12
  1.4	nt
> C=CCN1CN(Cc2ccco2)CNC1=S
  nt	-30
> CCOC(=O)c1oc2ccc3c(c2c1C)C(=O)CC1(CCN(C(=O)OCC)CC1)O3
  nt	-5
> Cc1c(/C=C/C(=O)Nc2ccc(F)cc2)sc2ccccc12
  -1.6	nt
> O=C(CSc1ccc2ccccc2c1)OCC(=O)N1CCCC1
  -15	-3
> O=C1CC(c2nnc(-c3ccccc3)o2)CN1c1ccccc1 (stereo not drawn)
  -5.1	-1
> c1ccc(NCc2cccc3ccccc23)nc1
  -5.3	11
> COc1ccc(C)cc1NC(=O)c1cc(C(=O)Nc2cc(C)ccc2OC)n(C)n1
  nt	21
> c1ccc(-n2ncc3c2ncn2nnnc32)cc1
  2.2	-5
> c1coc(-c2nc3sc4c(N5CCCCC5)ncnc4c3c3c2CCCC3)c1
  nt	7
> CCOC(=O)c1c(NC(=O)c2ccccc2)sc2c1CC(C(C)C)OC2 (stereo not drawn)
  3.0	3
> COc1ccc(C2(C(=O)NC(C)(C)CO)CCCC2)cc1OC
  nt	5
> Nc1cc(Br)cnc1N
  nt	-61
> CN(C(=O)c1cc2sccc2s1)c1ccccc1
  -0.3	nt
> Clc1ccc(N=Cc2ccc(Br)o2)cc1Cl
  0.5	-3
> Cc1ccc(-c2cn3cccnc3n2)cc1NC(=O)CC(C)(C)C
  -1.6	8
> CC1(C)CC(=O)c2sc(NC(=O)c3cccs3)nc2C1
  nt	20
> Cc1cc(C(=O)COC(=O)c2ccco2)c(C)n1CC1CCCO1 (stereo not drawn)
  nt	15
> CCC(=O)/C(=C(/O)c1ccccc1)c1nc2ccccc2[nH]1
  nt	-6
> O=C(OCc1nnc(-c2ccc(Cl)cc2)o1)c1ccc(S(=O)(=O)N2CCc3ccccc3C2)cc1
  nt	19
> O=S1(=O)CCC(S(=O)(=O)Nc2c(F)c(F)c(F)c(F)c2F)C1 (stereo not drawn)
  -5.1	nt
> CCC(C)NC(=O)N1c2ccccc2Sc2ccccc21 (stereo not drawn)
  1.5	9
> NC(=O)N/N=C/c1sc(N2CCCCC2)nc1-c1cccs1
  nt	-5
> CN1C(=O)/C(=C/c2ccc(C(=O)N3CCC(Cc4ccccc4)CC3)cc2)Oc2ccccc21
  -2.3	-3
> Cc1ccc(Cl)cc1N1CCN(C(=O)CCN2C(=O)COc3ccccc32)CC1
  1.1	7
> CCCCn1c(N)c(N(CC)C(=O)/C=C/c2ccc(Cl)cc2)c(=O)[nH]c1=O
  nt	-5
> Brc1ccc(CSc2nc3ccccc3o2)cc1
  0.5	6
> Cc1ccc(C)c2nc(SCC(=O)OC(C)C)c(C#N)cc12
  4.3	0
> Nc1cc(N)nc(SCC(=O)NCCN2C(=O)CSC2=O)n1
  nt	-7
> COc1ccccc1NC(=O)COC(=O)C1CCCC1
  -0.4	-19
> Cc1oc(-c2ccccc2F)nc1CS(=O)CC(=O)NCc1ccccn1 (stereo not drawn)
  0.0	4

Retrieved by compound from the entries so far, 2 records:
Value order: MgrA-DNA mod	Sa helicase inh
> Cc1oc(-c2ccccc2F)nc1CS(=O)CC(=O)NCc1ccccn1 (stereo not drawn)
  0.0	4
> NC(=O)N/N=C/c1sc(N2CCCCC2)nc1-c1cccs1
  nt	-5

Next section.
Value order: MgrA-DNA mod	Sa helicase inh
> CCn1c2c(c3cc(C4CCCCC4)ccc31)CCC/C2=N\O
  0.7	-20
> COc1cc(S(=O)(=O)N2CCCC2c2nc3ccccc3s2)ccc1NC(C)=O (stereo not drawn)
  nt	-4
> CN(C)c1cccc2c1c(NC(=O)c1cc(Cl)sc1Cl)nn2C
  1.2	nt
> CCN(Cc1ccccc1)S(=O)(=O)c1ccc(-c2ccc(=O)[nH]n2)o1
  nt	-1
> C=CCN=C1SC(C)(C)C(=O)N1S(=O)(=O)c1ccc(C)cc1
  2.1	5
> Cc1cc(CN(C)C)c(O)c(C2(C)CCCCC2)c1
  nt	7
> Cc1cccc(N2C(=O)C3C4C=CC(C4)C3C2=O)c1 (stereo not drawn)
  nt	14
> FC(F)(F)c1ccnc(NCCN=Cc2ccccc2)n1
  nt	-18
> O=C(O)CC1(CC(=O)Nc2cccc(CO)c2)CCCC1
  nt	12
> COc1ccc(CCNC(=O)c2ccco2)cc1OC
  1.2	nt
> CCC(=NCc1ccc(C#N)cc1)c1ccccc1O
  -3.2	nt
> O=C(NC1CCS(=O)(=O)C1)c1cccc(S(=O)(=O)N2CCCC2)c1 (stereo not drawn)
  1.1	8
> N#C/C(=C\NN1CCCCC1)S(=O)(=O)c1ccc(Cl)cc1
  -3.5	nt
> CS(=O)(=O)N(CC(=O)Nc1cccc(Cl)c1)c1ccccc1Cl
  1.2	4
> C=C1SC(Nc2ccc(F)cc2F)=NC1(CC)CC
  0.1	nt

New compounds follow
smiles | MgrA-DNA mod | Sa helicase inh
CCCSc1nc2ccccc2c(=O)n1C1CCCCC1 | nt | 8
COc1ccc2cc(C(=O)NC(C)=O)c(=Nc3ccccc3)oc2c1 | 1.1 | 7
Cc1cc(Cl)ccc1OCC(=O)Nc1ccc(Br)cn1 | nt | -6
Fc1ccc(CCc2ccc(F)cc2)cc1 | -1.0 | nt
CN(C)S(=O)(=O)c1ccc2c(c1)nc(CCC(=O)N1CCc3ccccc3C1)n2C | nt | 10
CN(C(=O)COC(=O)c1c[nH]c(=O)[nH]c1=O)C1CCCCC1 | nt | -11
CCCSc1nc2cc(C)c(C)cc2n1CC(O)CO (stereo not drawn) | 2.1 | -24
Clc1nc2cc3c(cc2s1)OCO3 | nt | 18
Cc1cc(=O)oc2c(CN3CCCC3)c(O)ccc12 | nt | 6
Cc1cccc(CN2C(=O)/C(=C\c3ccc(C(=O)NCCCN4CCN(C)CC4)cc3)Oc3ccccc32)c1 | nt | 22
O=c1oc2ccccc2c2c1ncn2CCN1CCOCC1 | nt | 1
O=C(Nc1nnc(COc2ccc(Cl)cc2)s1)C1CCCCC1 | nt | -10
COc1cc(CNc2ccccc2SC)ccc1O | 0.2 | 6
CC(=O)NC(NCC12CC3CC(CC(C3)C1)C2)(C(F)(F)F)C(F)(F)F | 4.2 | 14
COC(C(=O)N1CCCC1c1nnc(SCc2ccccc2)n1C)c1ccccc1 (stereo not drawn) | -3.0 | 15
COC(=O)CSC1=C(C#N)C(=O)NC(c2ccccc2O)S1 (stereo not drawn) | 20 | 7
COC(=O)NC(Nc1sc2c(c1C(N)=O)CCC2)(C(F)(F)F)C(F)(F)F | nt | -43
COc1ccc(CCNC(=S)NC2CC2)cc1OC | -8.6 | nt
CN=C(Nc1cc(C)nn1-c1ccccc1)c1ccccc1F | -0.8 | -1
O=C(COC(=O)COc1cccc(Br)c1)Nc1c(Cl)cccc1Cl | 1.6 | -10
Cc1noc(C)c1CSCC(=O)NC1=NCCS1 | nt | -5
O=c1c2ccccc2c(=O)n2n1CC=CC2 | nt | -31
COc1ccccc1N=C1SC(C)CN1C(=O)C1CCC1 (stereo not drawn) | nt | -8
COc1cc(S(=O)(=O)N2CCN(C)CC2)c(C)cc1C | 1.3 | -3
CCCCCC(=O)Nc1nc2c(s1)CCc1cc(OC)ccc1-2 | 7.3 | nt
Cc1noc(C)c1COC(=O)c1cc(S(=O)(=O)NC(C)C)ccc1Br | nt | -3
O=C(NC1CCCCCC1)C1CCCO1 (stereo not drawn) | -1.4 | 13
CC1CC1C(=O)OCC(=O)Nc1ccc(C(N)=O)cc1 (stereo not drawn) | 1.4 | 6
NC(=O)C1CCN(C(=S)Nc2ccccc2)CC1 | 3.6 | -3
CC1=C(C(=O)OCc2ccccc2)C(c2cccc(O)c2)C2=C(CC(c3ccccc3)CC2=O)N1 (stereo not drawn) | -2.2 | -1
CC(C)(C)C(=O)CSc1nnc(-c2cc(OCC(F)(F)F)ccc2OCC(F)(F)F)o1 | -1.2 | nt
O=C(Cn1cnc2sccc2c1=O)N1CCCC1c1ccc2c(c1)OCCCO2 (stereo not drawn) | nt | -5
Nc1ccccc1N=c1cc(-c2ccc3c(c2)OCO3)oc2ccccc12 | -0.8 | 14
CC1CCCCN1S(=O)(=O)c1ccc(N2CCCCS2(=O)=O)cc1 (stereo not drawn) | nt | -22
C(=C\c1ccccc1)/CN1CCN(c2ncnc3c2cnn3-c2ccccc2)CC1 | -3.4 | nt
CCOC(=O)C(CC)Sc1nc2c(cnn2-c2ccc(C)c(C)c2)c(=O)[nH]1 (stereo not drawn) | 2.8 | 17
CCN1CCCC1CNCC(O)COc1ccc(C)cc1 (stereo not drawn) | nt | 15
CCOC(=O)C1=CN(C)C=C(C(=O)OCC)C1c1cccc(OCc2ccccc2)c1 | 0.6 | 0
CC(C)(C)C(=O)COC(=O)c1cccnc1SCC(=O)Nc1ccc2c(c1)OCO2 | nt | -1
COc1ccc(-n2c(NN)nc3c(c2=O)C2(CCCC2)Cc2ccccc2-3)cc1 | 4.5 | 7
CCCCN=C(C)C1C(=O)c2ccccc2C1=O | -0.1 | -5
CCCCN(C)C(=O)c1cn(-c2cccc(OC)c2)c(=O)c2ccccc12 | nt | -19
O=C(Nc1nc2ccc(Cl)cc2s1)c1cccc(Cn2cc(Cl)cn2)c1 | nt | 17
CCSc1nnc2c(n1)OC(c1ccc(OC)c(Br)c1)Nc1ccccc1-2 (stereo not drawn) | -4.7 | nt
Cc1cccc(C)c1NC(=O)CN(C)C(C)C(=O)Nc1ccc(S(N)(=O)=O)cc1 (stereo not drawn) | nt | -2
O=C(O)c1cc2ccccc2o1 | 4.1 | nt
Cc1nn(S(=O)(=O)c2ccccc2)c(C)c1Oc1ccc(Cl)cc1 | -1.6 | nt
CCC(C)c1cc(N)nc2nc3ccccc3n12 (stereo not drawn) | -2.9 | nt
CC(C)(C)SCC(O)Cn1c2ccc(Cl)cc2c2cc(Cl)ccc21 (stereo not drawn) | -0.4 | -1
COc1cccc(CN(Cc2ccc3c(c2)OCO3)S(=O)(=O)c2ccc(-n3cnnn3)cc2)c1 | -30 | 8
Cc1cc(C)n(NC(=S)NC2CC3C=CC2C3)c(=O)c1C#N (stereo not drawn) | nt | -12

One compound at a time, as listed above.
Profile of CCCCN=C(C)C1C(=O)c2ccccc2C1=O → MgrA-DNA mod = -0.1; Sa helicase inh = -5
Profile of CCC(C)c1cc(N)nc2nc3ccccc3n12 (stereo not drawn) → MgrA-DNA mod = -2.9; Sa helicase inh = nt
Profile of CCCCN(C)C(=O)c1cn(-c2cccc(OC)c2)c(=O)c2ccccc12 → MgrA-DNA mod = nt; Sa helicase inh = -19
